RE007 growth inh – qHTS Assay for Inhibitors of the HIV-1 protein Vpr; Potency, µM (titrated, usually from 92.2 µM), inactives show at the highest dose activity change, negative = less growth; S. pombe RE007 Vpr strain, BacTiter-Glo ATP luminescence, 24 h; control for the full effect not named in the record; 0.21% of 360,000 active; AID 651644, 2012; active = well fitted falling curve with a large enough effect; inconclusive = small, poorly fitted or top-dose-only effect; inactive = no such curve, though single readings can be large or run the other way;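 also: nearly all actives have a fitted effect of over 50% in size; the assay follows cell death caused by Vpr and the record does not say whether a fall means rescue or toxicity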
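Fission yeast strain RE007, carrying one chromosomally integrated HIV-1 vpr copy, was seeded at OD 0.01 in PMG+AL medium with 23 nL pinned compound. After 24 h at 30 °C and 99% humidity, viability was read by BacTiter-Glo luminescence.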
StopGo reporter – High Throughput Screening for Foot and Mouth Disease Virus Antivirals; human cells with a luciferase reporter of 2A StopGo recoding; control for the full effect not named in the record; 1.2% of 410,000 active; Potency, µM (titrated, usually from 57.9 µM), without a hit: top-dose signal change, negative = less light; active = well fitted falling curve with a large enough effect; inconclusive = small, poorly fitted or top-dose-only effect; inactive = no such curve, though single readings can be large or run the other way; tested in HEK293T cells; also: nearly all actives have a fitted effect of over 45% in size; luciferase light after 4 h
Active calls of the source: *; ? = inconclusive; [ ] = another dose, or the depositor's remark. % is scaled to controls: 0 for no effect and ±100 for the full control effect; potency is read from the fitted curve at half-maximal effect.

SMILES	RE007 growth inh	StopGo reporter
Cc1cccc(C(=O)N2CCC(C)(C(=O)NS(=O)(=O)C3CC3)C2)c1C (stereo not drawn)	3%[18.4 µM]	-10%
Cc1cccc(C)c1C(O)c1ncc(-c2cccc3ccccc23)[nH]1 (stereo not drawn)	-29%	-25%
Fc1ccc(Nc2nc(NCc3ccccc3)nc3ccsc23)cc1	14%	?
N#CN1C2CCC1CC(O)(c1ccccc1)C2 (stereo not drawn)	16%	-16%
CCc1nc2ccc(C(=O)Nc3ccc(OC)c(OC)c3)cn2c1N(C)Cc1ccc(OC)cc1	-10%	-24%
CCOC(=O)N(C)C[C@H]1OCc2cnnn2CCCC(=O)N([C@@H](C)CO)C[C@@H]1C	0%	-23%
Cc1cc(F)ccc1-c1cc(C(=O)NCc2ccc(C(F)(F)F)cc2)[nH]n1	-12%	-19%
CC1(C(=O)NS(=O)(=O)c2ccc(F)cc2F)CCN1C(=O)CCc1ccccc1 (stereo not drawn)	1%	1%
O=C(NCC(c1cccs1)N1CCOCC1)c1cc(F)cc(F)c1 (stereo not drawn)	11%	-10%
CC(C)c1ccc(C(=O)N2CCOCC2c2cc(C(=O)Nc3ccccc3)no2)cc1 (stereo not drawn)	5%	29%
CCCCn1c(N)c(N(CCOC)C(=O)CCNC(=O)NC23CC4CC(CC(C4)C2)C3)c(=O)[nH]c1=O	12%	-14%
O=C(N/N=C/c1cc(Br)c(O)c([N+](=O)[O-])c1)C(O)(c1ccccc1)c1ccccc1	-8%	?
CN(C)S(=O)(=O)c1cccc(NC(=O)COc2ccccc2C(=O)Nc2ccccc2)c1	-1%	?
CCN(CC)C(=O)c1cccc(-c2csc(C(NC(C)=O)c3ccc(F)c(F)c3)n2)c1 (stereo not drawn)	4%	10%
Cc1ccc2c(c1)Oc1ccccc1N=C2	-19%	-3%
CCCCN1CCCCC1(C)C(=O)NCc1cccc(OC)c1 (stereo not drawn)	0%	-19%
O=C(Nc1ccc(C(=O)O)cc1)Oc1ccc(N(CCCl)CCCl)cc1	5%	36%[activator]
CC(C)n1c(=O)c2ccccc2n1Cc1cn(-c2ccc(Cl)cc2)nn1	-10%	-14%
N#Cc1ccc(C(C(=O)Nc2ccc3c(c2)OCCO3)n2c(=O)c(-c3ccco3)nc3ccccc32)cc1 (stereo not drawn)	11%	27%
CN(C)CC/C=C1\c2cc(Cl)ccc2Sc2cc(F)c(F)cc21	7%	?
COc1ccc2nc(C)cc(Nc3ccccc3OC)c2c1	-13%	-27%
COc1ccc(Br)c(C(=O)N2CCCC2(C)C(=O)NCC(C)C)c1 (stereo not drawn)	0%	-5%
COC(=O)C[C@H]1C=C[C@H](NC(=O)Nc2ccccc2OC)[C@@H](CO)O1	5%	-8%
COc1cc2nn(-c3ccccc3N)nc2cc1OC	-11%	-2%
O=C(NCc1ccc(F)cc1F)[C@@H]1CCCN1C(=O)[C@@H]1CCCN1	8%	-15%
COc1ccc(S(=O)(=O)NC(=O)C2(C)CCN2C(=O)CC2CC2)cc1 (stereo not drawn)	0%[18.4 µM]	-15%
Cc1ccc(S(=O)(=O)N2CCOCC2)cc1C(=O)N1CCN(S(=O)(=O)c2ccccc2F)CC1	-8%	-13%
CCOc1ccccc1-c1cnc(NC)cn1	-22%[18.4 µM]	8%
CN(CCc1ccccc1)C(=O)c1cccc(NC(=O)Cc2cccc(NC(=O)C3CCCN(C(=O)C4CCCCC4)C3)c2)c1 (stereo not drawn)	4%	?
Cc1ccc(NC(=O)c2ccc3c(c2)CCN3S(C)(=O)=O)cc1	4%	39%[activator]
O=C(COC(=O)c1ccccc1)NCC1COc2ccccc2O1 (stereo not drawn)	-14%	-10%
CCCC1C(=O)N2C(N(C)C)=Nc3ccc(C)cc3N2C1=O (stereo not drawn)	-9%	15%
O[C@H]1C[C@H](c2ccc(Cl)cc2)N(Cc2cccs2)C[C@@H]1n1cc(-c2ccc(F)cc2)nn1	3%	-6%
CCOc1ccc(OCCCC(=O)Nc2cc(S(=O)(=O)N3CCOCC3)ccc2N2CCOCC2)cc1	11%	-12%
CC(=O)Nc1ccc(-c2noc(-c3csc([C@@H]4C[C@H](O)[C@@H](CO)O4)n3)n2)cc1	3%	8%
Cc1ccc(Cc2c(-c3ccccc3)nc3c(C)cc(Br)cn23)cc1	-19%	-10%
CC1(C(=O)Nc2cnc3ccccc3c2)CCN1Cc1ccc2ccccc2c1 (stereo not drawn)	-17%	0%
O=C(C[C@H]1C[C@@H]2c3cc(NS(=O)(=O)c4ccccc4)ccc3O[C@@H]2[C@H](CO)O1)N1CCOCC1	-14%	-17%
NC(=O)c1cccc(Nc2nc(C(N)COCc3ccccc3)cs2)n1 (stereo not drawn)	-15%	-21%
CN(C)CCN1CCN(C2CN(Cc3cn(Cc4ccccc4C(F)(F)F)nn3)S(=O)(=O)C2)CC1 (stereo not drawn)	1%	-12%
O=C(Cn1sc2ccccc2c1=O)Nc1ccc(Cl)cc1	8%	-16%
Cc1cnc(C(=O)OCC(=O)c2cc(C)n(CCc3ccc(F)cc3)c2C)cn1	13%	-25%
O=C1OCCOC2CCCc3oc(-c4ccccc4)c1c32 (stereo not drawn)	-30%	-22%
COc1ccc(S(=O)(=O)N(C)C[C@@H]2OCc3cnnn3CCCC(=O)N([C@@H](C)CO)C[C@@H]2C)cc1	0%	-6%
COc1ccc(Cl)cc1Cn1c(C)c(C(=O)NCc2cccc([N+](=O)[O-])c2)sc1=O	12%[18.4 µM]	-14%
CNc1ccc2ncc(-c3ccccc3C(C)=O)n2n1	3%	-19%
O=S1(=O)CC(N2CCC(Cc3ccccc3)CC2)CN1C1CCCCC1 (stereo not drawn)	-7%	-29%
O=C(NCCO)/C(=C\c1cccc([N+](=O)[O-])c1)NC(=O)c1cccs1	7%	80%[activator]

Full records, quoted from the list:
COc1ccc(Cl)cc1Cn1c(C)c(C(=O)NCc2cccc([N+](=O)[O-])c2)sc1=O is listed as RE007 growth inh = 12%[18.4 µM]; StopGo reporter = -14%
CNc1ccc2ncc(-c3ccccc3C(C)=O)n2n1 is listed as RE007 growth inh = 3%; StopGo reporter = -19%
CC1(C(=O)Nc2cnc3ccccc3c2)CCN1Cc1ccc2ccccc2c1 (stereo not drawn) is listed as RE007 growth inh = -17%; StopGo reporter = 0%

(listing goes on)
SMILES	RE007 growth inh	StopGo reporter
CCC(C)NC(=O)c1ccc(N2CC3CC(C2)c2cccc(=O)n2C3)c(NC(=O)c2c(F)cccc2F)c1 (stereo not drawn)	-13%	23%
O=C(NCc1cccs1)c1cccc2c(-c3cccnc3)coc12	0%[18.4 µM]	-2%
CS(=O)(=O)Nc1cccc(-c2cc(NC=O)c3ncc(-c4ccc(F)cc4)n3c2)c1	4%[18.4 µM]	?
O=C(CCc1ccccc1)N1Cc2cc(N3CCCCC3)ccc2-n2nncc2C1	-16%	-21%
C[C@@H]1CN([C@@H](C)CO)S(=O)(=O)c2ccc(Br)cc2O[C@H]1CN(C)C(=O)Cc1cccnc1	-14%	-8%
CC1(C(=O)NCc2ccccc2)CSCC(=O)N1CCc1c[nH]c2ccccc12 (stereo not drawn)	0%	-1%
CCC(c1nnnn1-c1ccc(OC)cc1)N1CCN(C/C=C/c2ccccc2)CC1 (stereo not drawn)	-14%	-39%
COc1cccc(-c2cnc3c(NC=O)cc(-c4cccc(NC(C)=O)c4)cn23)c1	-3%[18.4 µM]	-11%
CC1(C)CC(=O)C(CC(=O)c2ccccc2)=C(NN=C(N)N)C1	6%	-5%
COc1ccccc1-c1cccc([C@@H]2C[C@H]3[C@@H](CN2)CON3C)c1	-10%	-9%
CSCC[C@H](CO)NC(=O)[C@H]1O[C@@H](n2cnc3c(N)ncnc32)[C@H](O)[C@@H]1O	9%	-19%
CC(C)(C)S(=O)N1Cc2cc(=O)n(Cc3ccccc3)cc2[C@H]1CCO (stereo partly drawn)	-3%	-14%

Part of the list above in order of molar mass, highest first:
SMILES	RE007 growth inh	StopGo reporter
C[C@@H]1CN([C@@H](C)CO)S(=O)(=O)c2ccc(Br)cc2O[C@H]1CN(C)C(=O)Cc1cccnc1	-14%	-8%
CS(=O)(=O)Nc1cccc(-c2cc(NC=O)c3ncc(-c4ccc(F)cc4)n3c2)c1	4%[18.4 µM]	?
CC1(C(=O)NCc2ccccc2)CSCC(=O)N1CCc1c[nH]c2ccccc12 (stereo not drawn)	0%	-1%
COc1cccc(-c2cnc3c(NC=O)cc(-c4cccc(NC(C)=O)c4)cn23)c1	-3%[18.4 µM]	-11%
CSCC[C@H](CO)NC(=O)[C@H]1O[C@@H](n2cnc3c(N)ncnc32)[C@H](O)[C@@H]1O	9%	-19%

The list goes on.
SMILES	RE007 growth inh	StopGo reporter
CCCOc1ccc(F)cc1-c1cc(C(=O)Nc2ccc(F)cc2)[nH]n1	11%	?
C/C(=N\NC(=O)C1CC1)c1ccc(C)cc1C	12%	-10%
c1cc(-c2ccc(CN3CCOCC3)cc2)n2ccnc2c1	-29%	-14%
O=C(NCCCN1CCOCC1)C1Nc2ccc(OC(F)(F)F)cc2C2C=CCC12 (stereo not drawn)	-1%	-11%
Cc1ccc(F)cc1C(=O)N1CCOCC1c1cc(C(=O)Nc2ccccc2)no1 (stereo not drawn)	11%	-22%
Cc1ccccc1NS(=O)(=O)c1ccc(S(=O)(=O)N2CCCC2)cc1	7%	?
CC(O)(c1cccc(F)c1)c1nc(-c2cnc3ccccc3c2)cs1 (stereo not drawn)	13%	?
CC(C(=O)O)C(=O)O	7%[18.4 µM]	-24%
CCc1cc(-c2nnn(CCC3COCCO3)c2CC)cc(CC)c1-c1cn(Cc2ccccc2)nn1 (stereo not drawn)	-17%	-23%
O=C1OCC/C1=C\NCCCN/C=C1\CCOC1=O	-9%	-15%
NC(=O)c1[nH]cnc1N=NN(CCO)Cc1ccccc1	-6%	-22%
CC1(Cc2ccccc2OC(F)(F)F)C(=O)Nc2c(Cl)ccc(Cl)c21 (stereo not drawn)	?	-14%
COC(=O)C1=C[C@@H](C(=O)OC)[C@@H]2C3=C(C(=O)[C@]2(C)NC(=O)c2ccccc2)[C@H](C)n2c(=O)n(-c4ccccc4)c(=O)n2[C@@H]3C1	11%	5%
CC[C@H](C)[C@H]1CNC(=S)N1CC1CCN(CCC(C)(C)C)CC1	3%	-20%
C[C@@H]1CN([C@@H](C)CO)C(=O)c2cc(Br)cnc2O[C@H]1CN(C)C(=O)CCN1CCCCC1	32%	-4%
Cc1ccc(-n2sc3cc(F)ccc3c2=O)c(C)c1	11µM*	?
O=C(Nc1ccc2c(c1)OCCO2)C(c1ccnc2ccccc12)N1CCN(C/C=C/c2ccccc2)CC1 (stereo not drawn)	?	?
CS(=O)(=O)c1ccc(Nc2nc(C(N)CCc3ccccc3)cs2)cc1 (stereo not drawn)	-1%[18.4 µM]	-16%
CCCCN(C(=O)c1ccccc1Br)C(c1ccc(OC)cc1)c1nc2ccccc2[nH]1 (stereo not drawn)	3%	12%
CCc1nc2ccc(C(=O)N(C)CCCN(C)C)cn2c1N(C=O)CCC(C)C	-10%	5%
C[C@@H]1CN([C@@H](C)CO)C(=O)CCCn2nncc2CO[C@H]1CN(C)C(=O)Nc1ccccc1F	-6%	-9%
C[C@@H]1CN([C@@H](C)CO)C(=O)CCCn2nncc2CO[C@H]1CN(C)S(=O)(=O)c1ccc(C#N)cc1	0%	-13%
CCN(CC1CCCO1)C(=O)CCc1nnc(CCc2ccccc2)o1 (stereo not drawn)	-1%	91%[activator]
COc1ccccc1CN1C(=O)C(Cc2ccccc2)ON=C1c1ncccc1C (stereo not drawn)	-7%[18.4 µM]	-11%
COc1ccc(C(CNC(=O)c2cc(S(=O)(=O)Nc3cccc(C)c3)ccc2C)N2CCOCC2)cc1 (stereo not drawn)	1%	25%
Cn1c(NCc2cccnc2)nc2cc(-c3cccc(C(=O)NCCO)c3)sc2c1=O	-3%	5%
COc1c(C)cc(C(O)c2ncc(-c3ccc(Cl)cc3)[nH]2)cc1C (stereo not drawn)	-4%[18.4 µM]	?
CC1(C(=O)NS(=O)(=O)C2CC2)CCCN(C(=O)c2ccc(C(F)(F)F)cc2)C1 (stereo not drawn)	23%	-11%
C[C@H]1CN([C@@H](C)CO)C(=O)CCCn2nncc2CO[C@@H]1CN(C)Cc1ccc2c(c1)OCCO2	-10%	-9%
Cc1cc(Br)ccc1NC(=O)CN(C)C(=O)c1cccc(S(=O)(=O)N2CCN(C)CC2)c1	14%	0%
COC(=O)[C@]12CCCCC=C1N(Cc1cccc3ccccc13)C(=O)[C@H](CC(=O)NCCc1ccccc1OC)C2	5%	-10%
CCOc1ccccc1NC(=O)COC(=O)C1CCC1	3%	-11%
CCOC(=O)[C@]12CCC=C1N(Cc1ccc3c(c1)OCO3)C(=O)[C@H](CC(=O)NCc1cccc(C(F)(F)F)c1)C2	17%	-19%
C[C@H](NC(=O)c1ncn2c1C(=O)NC[C@H]2C)c1ccccc1	-20%	11%
Cc1cc(NS(C)(=O)=O)c(=O)n(Cc2cccc(C(F)(F)F)c2)c1	-11%	-29%
CNC(=O)C[C@H]1C(=O)N(Cc2ccccc2)C[C@@H]1C	11%	-16%
CC(=O)Nc1cccc(Nc2cc(C)nn2C)c1	4%	-1%
CCOC(=O)[C@H]1[C@H]2COc3ccc(Br)cc3[C@H]2N2C(=O)CN(CCc3c[nH]c4ccccc34)C(=O)[C@@]12C	-3%	?

Bioassay records: PubChem BioAssay, National Center for Advancing Translational Sciences (NCATS)

A portion of the library; rates above refer to the full screens.
